Source: PubChem
MITF inh = blocks MITF activity; TRPM1 promoter luciferase, luminescence, 24 h; inhibition, % (concentration not given with the values); actives 0.28% (n = 37,000);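 active = most replicates at 85% or more, or half of them and the mean; inconclusive = half reach 85% but not the mean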;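 also: human melanocyte line stably carrying TRPM1 promoter luciferase reporter; 0% = vehicle wells and 100% = a positive control; the first replicate is given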
YB-1 expr inh = YB-1 expression inhibition. U2OS, qRT-PCR YB-1 vs CDIP delta delta Cp, 16 h; hits give high values; zero = DMSO, each unit about twofold. AID 434959. actives 0.37% (n = 30,000). delta delta Cp (YB-1 minus CDIP) (test concentration not listed);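 active = delta delta Cp rounded down to an integer at or above 3, about 3 SD of DMSO wells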;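 also: higher means less YB-1 transcript or more CDIP transcript relative to DMSO; stock transfer was 100 nL into about 100 µL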
Shh pathway inh = blocks Sonic Hedgehog signaling. actives 2.1% (n = 22,000). Shh-LIGHT2 Gli-luciferase reporter, 30 h. AID 2313. inhibition, % (no concentration beside the values);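 active = replicate mean of 65% or more; inconclusive = mean lower but half the replicates past it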;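 also: pathway switched on by Shh-conditioned medium diluted 1 in 25 in low serum; 100 nL library stock added to about 40 µL; 0% = median of neutral wells and 100% = positive control level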
PD-1 reversal = reversal of PD-1 mediated T-cell inhibition. 29,000 tested, under 10 active. activation, % (no concentration beside the values). primary human CD4 T cells, PD-L1 beads, CellTiter-Glo 96 h;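 active = replicate mean of 50% or more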;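 also: 0% = median vehicle wells and 100% = positive control; 100 nL library stock added to about 50 µL; numbers are from one replicate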
* = called active by the depositor; u = inconclusive; x = not tested or not shown. This is a subset; count on the stated rates, not on these rows.

SMILES	MITF inh	YB-1 expr inh	Shh pathway inh	PD-1 reversal
C[C@H](CO)N1C[C@H](C)[C@H](CN(C)C(=O)Nc2cccc3ccccc23)Oc2c(NC(=O)Nc3cccc4ccccc34)cccc2C1=O	38	-0.97	-26	-0.7
C[C@@H]1CN([C@H](C)CO)C(=O)Cc2cc(NC(=O)CCN3CCOCC3)ccc2O[C@@H]1CN(C)C(=O)NC1CCCCC1	-3	0.5	44	1.4
COc1ccc(NC(=O)Nc2ccc3c(c2)C(=O)N([C@H](C)CO)C[C@H](C)[C@H](CN(C)C(=O)Nc2c(C)noc2C)OCCCC[C@@H](C)O3)cc1	10	-0.097	x	0.5
COc1ccc(NC(=O)N(C)C[C@@H]2Oc3ccc(NC(=O)C4CC4)cc3CC(=O)N([C@H](C)CO)C[C@@H]2C)cc1	-5	-0.081	11	x
COC(=O)CSc1nnc(-c2cc(OC)c(OC)c(OC)c2)n1C	-21	x	x	3.0
Cc1ccc(S(=O)(=O)Nc2ccc3c(c2)C(=O)N([C@H](C)CO)C[C@@H](C)[C@H](CN(C)Cc2ccc(-c4ccccc4)cc2)O3)cc1	16	0.86	-17	-2.3
Cc1ccc(S(=O)(=O)N2CCCC2C(=O)NCc2ccco2)cc1 (configuration not stated)	-13	x	x	1.9
Cc1noc(C)c1NC(=O)N(C)C[C@H]1OCCCC[C@@H](C)Oc2ccc(N(C)C)cc2C(=O)N([C@H](C)CO)C[C@@H]1C	3	0.35	19	1.7
Cc1ccc(C(=O)Nc2ccccc2)c(C)n1	-83	0.051	-38	-0.6
C[C@H]1CN([C@@H](C)CO)C(=O)Cc2cc(NC(=O)C3CCCCC3)ccc2O[C@@H]1CN(C)C(=O)Nc1ccc(C(F)(F)F)cc1	-19	-0.3	x	-0.2
CC(C)NC(=O)Nc1ccc2c(c1)C(=O)N([C@@H](C)CO)C[C@H](C)[C@H](CN(C)S(=O)(=O)c1ccccc1)O2	5	-0.1	-11	0.9
Cc1ccc(NC(=O)CSc2nc(C)c(C)c(=O)[nH]2)cc1	-3	x	x	2.1
CC(=O)O[C@@H]1CC2C(C)(C)C(=O)C3OC3[C@]2(C)C2CC[C@@]3(C)[C@H](c4ccoc4)OC(=O)C4OC43[C@@]21C (some centres not stated)	-10	-0.15	-35	x
CC(C)NC(=O)Nc1ccc2c(c1)C(=O)N([C@@H](C)CO)C[C@H](C)[C@H](CN(C)S(=O)(=O)c1cccs1)O2	-11	-0.31	x	2.6
COc1ccc(CN(C)C[C@@H]2Oc3ccc(NC(=O)Nc4ccc(C(F)(F)F)cc4)cc3C(=O)N([C@@H](C)CO)C[C@H]2C)cc1	-13	0.39	28	x
COc1cccc(CN2CCN(C(=S)Nc3ccc(S(N)(=O)=O)cc3)CC2)c1	29	x	x	0.3
C[C@@H]1CN([C@H](C)CO)C(=O)c2cccc(NC(=O)C3CCCCC3)c2O[C@H]1CN(C)S(=O)(=O)c1cn(C)cn1	-4	-0.13	15	2.8
C[C@H]1CN([C@@H](C)CO)C(=O)Cc2cc(NS(=O)(=O)c3ccc(F)cc3)ccc2O[C@H]1CN(C)CC1CCCCC1	1	0.16	-16	-6.0
CCCC1CCC(c2ccc(OC(=O)c3ccco3)cc2)CC1 (configuration not stated)	-4	0.059	x	-0.3
C[C@@H]1CN([C@@H](C)CO)C(=O)c2cc(NC(=O)Nc3ccccc3)ccc2O[C@@H]1CN(C)C(=O)Nc1ccc(F)cc1	-22	0.075	-36	-1.1
C[C@@H]1CN([C@H](C)CO)C(=O)Cc2cc(NS(=O)(=O)c3cccs3)ccc2O[C@@H]1CN(C)C(=O)Nc1ccccc1	-7	-0.4	-25	x
CC(=O)Nc1ccccc1NC(=O)CN(C)S(=O)(=O)c1ccc(Cl)cc1	-18	x	x	0.7
COC(=O)C1=CO[C@@H](O[C@@H]2O[C@H](CO)[C@@H](O)[C@H](O)[C@H]2O)C2C1CCC2(C)O (some centres not stated)	-2	-0.41	-3	3.0
C[C@H]1CN([C@@H](C)CO)C(=O)c2cc(NC(=O)c3ccncc3)ccc2O[C@@H]1CN(C)C(=O)Nc1ccc(F)cc1	-2	-0.085	-19	0.0
C[C@H]1CN([C@@H](C)CO)C(=O)Cc2cc(NS(=O)(=O)c3ccc(Cl)cc3)ccc2O[C@@H]1CN(C)C(=O)Nc1ccc2c(c1)OCO2	3	0.14	49	0.8
C[C@@H]1CN([C@H](C)CO)C(=O)c2cccc(NC(=O)Nc3ccc4c(c3)OCO4)c2O[C@H]1CN(C)S(=O)(=O)c1cn(C)cn1	3	-0.19	-50	x
Cn1nc(-c2ccc(OCC(=O)Nc3cccnc3)cc2)c2ccccc2c1=O	-20	x	x	-1.9
C[C@H]1CN([C@@H](C)CO)C(=O)c2cccc(NC(=O)Nc3ccc4c(c3)OCO4)c2O[C@H]1CN(C)S(C)(=O)=O	-5	-0.34	-8	x
COc1ccc(CN(C)C[C@H]2Oc3ccc(NC(=O)Cn4cnnn4)cc3CC(=O)N([C@@H](C)CO)C[C@@H]2C)cc1	-10	-0.17	x	1.1
O=C(NCc1ccccn1)C1CCCN(S(=O)(=O)c2ccccc2)C1 (configuration not stated)	8	x	x	0.7
C[C@@H]1CN([C@H](C)CO)C(=O)c2cc(NC(=O)Cn3cnnn3)ccc2O[C@@H]1CN(C)CC1CCCCC1	7	-0.13	-17	-0.3
CC1OC(OC2C(O)C(CO)OC(O[C@H]3CC[C@@]4(C)C(CC[C@]5(C)C4CC=C4C6CC(C)(C)CC[C@]6(C(=O)OC6OCC(OC7OCC(O)C(O)C7O)C(O)C6O)CC[C@]45C)C3(C)C)C2O)C(O)C(OC2OCC(O)(CO)C2O)C1O (some centres not stated)	-9	-0.087	40	-14
C[C@@H]1CN([C@H](C)CO)C(=O)c2cccc(NC(=O)c3nc4ccccc4s3)c2O[C@H]1CN(C)Cc1ccc(-c2ccccc2)cc1	15	-0.37	-3	x
CCn1c(SCC(=O)Nc2ccc(Br)cc2Cl)nnc1-c1cccc([N+](=O)[O-])c1	53	x	x	-1.8
O=C(Nc1ccccc1[N+](=O)[O-])C1Cc2ccccc2CN1S(=O)(=O)c1ccc(F)cc1 (configuration not stated)	12	x	x	0.6
COc1cc(Cc2nccc3cc(OC)c(OC)cc23)c(NC(=O)c2cccc(Br)c2)cc1OC	-8	x	x	-0.8
COc1ccc(CN(C)C[C@H]2Oc3ccc(NC(=O)CCCCCC(=O)Nc4ccccc4N)cc3C(=O)N([C@H](C)CO)C[C@H]2C)cc1	-1	0.25	x	0.4
Nc1ncnc2c1ncn2CCNCCc1ccccc1	-10	x	x	1.2
C[C@@H]1CCCCO[C@H](CN(C)S(=O)(=O)c2cccs2)[C@@H](C)CN([C@H](C)CO)C(=O)c2cc(NC(=O)CCC(F)(F)F)ccc2O1	2	-0.12	49	-3.2
C[C@@H]1CN([C@H](C)CO)C(=O)c2cccc(NC(=O)c3nc4ccccc4s3)c2O[C@H]1CN(C)C(=O)Nc1ccccc1	-3	-0.25	-17	-0.7
C[C@H]1CN([C@@H](C)CO)C(=O)c2cccc(NC(=O)c3nc4ccccc4s3)c2O[C@@H]1CN(C)Cc1ccncc1	1	-0.18	u	-4.3
C[C@@H]1CN([C@@H](C)CO)C(=O)c2cc(NS(=O)(=O)c3ccc(Cl)cc3)ccc2O[C@H]1CN(C)Cc1ccc(-c2ccccc2)cc1	27	-0.012	-3	-0.1
CC(C)NC(=O)N(C)C[C@H]1Oc2ccc(NS(=O)(=O)c3ccc(F)cc3)cc2CC(=O)N([C@@H](C)CO)C[C@@H]1C	-6	-0.021	-10	1.3
O=C(Cn1ccc([N+](=O)[O-])n1)N1CCCc2ccccc21	5	x	x	1.1
C/C=C(/C)C(=O)O[C@@H]1C[C@@H](OC(=O)/C(C)=C\C)[C@](C)(CO)C2C3C(=O)C[C@@H](C)C2[C@]31C	-10	0.14	-32	1.3
C[C@H]1CN([C@@H](C)CO)C(=O)Cc2cc(NS(=O)(=O)c3ccccc3)ccc2O[C@H]1CN(C)C(=O)Nc1ccc2c(c1)OCO2	-9	-0.23	26	x
COc1ccc(NC(=O)N(C)C[C@@H]2Oc3ccc(NS(=O)(=O)c4cn(C)cn4)cc3C(=O)N([C@H](C)CO)C[C@H]2C)cc1	-7	0.31	-23	2.0
Cc1noc(C)c1NC(=O)N(C)C[C@@H]1Oc2ccc(NS(=O)(=O)c3c(C)noc3C)cc2C(=O)N([C@H](C)CO)C[C@@H]1C	-2	-0.2	-34	1.0
Cc1ccc(S(=O)(=O)Nc2ccc3c(c2)CC(=O)N([C@H](C)CO)C[C@@H](C)[C@H](CN(C)Cc2ccc(C(=O)Nc4ccccc4N)cc2)O3)cc1	0	0.058	x	-0.5
Cc1ccc(-c2cc(C)nc(SCC(=O)Nc3ccc(F)cc3)n2)cc1	-7	x	x	-1.3
Cc1cc(C(=O)Nc2cccc3c2O[C@H](CN(C)Cc2ccccc2)[C@H](C)CN([C@@H](C)CO)C3=O)n(C)n1	-9	-0.18	-21	2.4
CC(C)(C)c1ccc(OCC(=O)Nc2cccc(C(=O)O)c2)cc1	61	x	x	1.1
COc1cc(OC)nc(NC(=O)CSc2nc3ccccc3[nH]2)n1	-18	x	x	3.2
C[C@@H]1CN([C@H](C)CO)C(=O)c2cc(NC(=O)CCC(F)(F)F)ccc2O[C@@H]1CN(C)C(=O)NC1CCCCC1	0	0.015	x	0.9
C[C@@H]1CN([C@H](C)CO)C(=O)c2cccc(NS(C)(=O)=O)c2O[C@@H]1CN(C)S(=O)(=O)c1ccc(F)cc1	2	1.2	13	1.4
C[C@H]1CN([C@@H](C)CO)C(=O)Cc2cc(NS(=O)(=O)c3ccc(F)cc3)ccc2O[C@@H]1CN(C)Cc1ccc(Oc2ccccc2)cc1	14	-0.84	-8	-2.3
CNC[C@@H]1Oc2ccc(NS(=O)(=O)c3c(C)noc3C)cc2C(=O)N([C@H](C)CO)C[C@@H]1C	-9	-0.25	11	0.6
N#CC(=C1SCCCCS1)S(=O)(=O)c1ccc(Cl)cc1	-26	-0.093	2	2.4
C[C@@H]1CN([C@H](C)CO)C(=O)c2cc(NS(=O)(=O)c3ccc(Cl)cc3)ccc2O[C@@H]1CN(C)S(=O)(=O)c1cn(C)cn1	1	-0.088	x	1.4
C[C@@H]1CN([C@@H](C)CO)C(=O)c2cccc(NC(=O)c3cnccn3)c2O[C@@H]1CN(C)Cc1ccc(C(F)(F)F)cc1	-9	-0.78	-23	0.4

Quoted from the listing.
COc1cc(OC)nc(NC(=O)CSc2nc3ccccc3[nH]2)n1 in MITF inh shows -18
CNC[C@@H]1Oc2ccc(NS(=O)(=O)c3c(C)noc3C)cc2C(=O)N([C@H](C)CO)C[C@@H]1C in YB-1 expr inh shows -0.25
C[C@@H]1CN([C@H](C)CO)C(=O)c2cc(NC(=O)CCC(F)(F)F)ccc2O[C@@H]1CN(C)C(=O)NC1CCCCC1 in PD-1 reversal shows 0.9
Cc1ccc(S(=O)(=O)Nc2ccc3c(c2)CC(=O)N([C@H](C)CO)C[C@@H](C)[C@H](CN(C)Cc2ccc(C(=O)Nc4ccccc4N)cc2)O3)cc1 in MITF inh shows 0
C/C=C(/C)C(=O)O[C@@H]1C[C@@H](OC(=O)/C(C)=C\C)[C@](C)(CO)C2C3C(=O)C[C@@H](C)C2[C@]31C in PD-1 reversal shows 1.3

Back to the main list, starting two compounds before the break.
SMILES	MITF inh	YB-1 expr inh	Shh pathway inh	PD-1 reversal
C[C@@H]1CN([C@H](C)CO)C(=O)c2cc(NS(=O)(=O)c3ccc(Cl)cc3)ccc2O[C@@H]1CN(C)S(=O)(=O)c1cn(C)cn1	1	-0.088	x	1.4
C[C@@H]1CN([C@@H](C)CO)C(=O)c2cccc(NC(=O)c3cnccn3)c2O[C@@H]1CN(C)Cc1ccc(C(F)(F)F)cc1	-9	-0.78	-23	0.4
C[C@@H]1CN([C@H](C)CO)C(=O)c2cc(NC(=O)Nc3ccc(F)cc3)ccc2O[C@H]1CN(C)C(=O)Nc1ccccc1	1	0.31	-14	1.3
CC(C)NC(=O)Nc1cccc2c1O[C@H](CN(C)C(=O)NC1CCCCC1)[C@@H](C)CN([C@@H](C)CO)C2=O	-6	-0.027	-22	1.0
Cc1ccc(S(=O)(=O)Nc2ccc3c(c2)C(=O)N([C@H](C)CO)C[C@H](C)[C@H](CN(C)S(=O)(=O)c2ccccc2)O3)cc1	-12	0.24	x	-5.7
NC(N)=NC(N)=Nc1ccccc1	-1	0.16	-19	x
Cc1cc(Br)c(NC(=O)CSc2nc3ccccc3[nH]2)cc1C	18	x	x	-4.7
COc1ccc(NC(=O)Nc2ccc3c(c2)CC(=O)N([C@@H](C)CO)C[C@H](C)[C@@H](CN(C)S(=O)(=O)c2cccs2)O3)cc1	-21	0.09	-1	0.0
Cc1c(Br)c([N+](=O)[O-])nn1C(C)C(=O)Nc1ccc(CC#N)cc1 (configuration not stated)	-26	x	x	1.3
Cc1noc(C)c1NC(=O)N(C)C[C@H]1Oc2ccc(NS(=O)(=O)c3c(C)noc3C)cc2CC(=O)N([C@@H](C)CO)C[C@H]1C	1	0.18	7	0.8
C[C@@H]1CN([C@H](C)CO)C(=O)c2cc(NC(=O)Nc3ccccc3)ccc2O[C@H]1CN(C)C(=O)NC1CCCCC1	-1	0.043	x	2.0
COc1ccc(C(=O)COc2ccc(NC(=O)c3ccccc3[N+](=O)[O-])cc2)cc1	-12	x	x	2.3
COc1cc(-c2c(C#N)c(SCC#N)nc(N)c2C(=O)OC(C)C)cc(OC)c1OC	15	-0.08	3	0.5
